Screening results deposited in PubChem BioAssay by National Center for Advancing Translational Sciences (NCATS).
D2 PAM: human D2 receptor positive allosteric modulation | DiscoveRx D2 beta-arrestin cells, luminescence, 90 min; 100% = 57 uM dopamine signal | potentiation, % (concentration not given with the values) | 0.23% of 360,000 active | AID 624464; active = potentiation of 50% or more; inconclusive = 30% to 50%; inactive = 30% or less;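 note: compound concentration not given in the record; tested on top of an EC20 dose of dopamine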
Target sequence (P14416 whole entry, looked up): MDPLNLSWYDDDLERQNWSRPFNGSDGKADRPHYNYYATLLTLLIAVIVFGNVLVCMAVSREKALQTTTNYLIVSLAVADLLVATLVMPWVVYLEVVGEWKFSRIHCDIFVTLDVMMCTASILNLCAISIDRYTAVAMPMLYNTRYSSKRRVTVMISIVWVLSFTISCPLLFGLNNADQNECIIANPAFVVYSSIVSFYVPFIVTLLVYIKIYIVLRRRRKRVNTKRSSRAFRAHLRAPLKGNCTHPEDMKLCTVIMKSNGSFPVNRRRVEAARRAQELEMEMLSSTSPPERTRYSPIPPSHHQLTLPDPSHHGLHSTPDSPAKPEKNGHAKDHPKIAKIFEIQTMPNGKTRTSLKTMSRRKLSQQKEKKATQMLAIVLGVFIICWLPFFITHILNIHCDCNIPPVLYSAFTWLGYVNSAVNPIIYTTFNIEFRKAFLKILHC
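D2 cells co-treated with compound plus 50 nM dopamine (EC20) for 90 min at 37 deg C to detect potentiation. Beta-arrestin recruitment was read as enzyme-fragment luminescence after 1 h at ambient temperature. Full response was set by 57 uM dopamine.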
CtBP-E1A inh: blocks the CtBP interaction with E1A; AlphaScreen GST-E1A/His-CtBP binding, 1536-well; hits give low values; control for the full effect not named in the record; 0.49% of 340,000 active; activity change, % (test concentration not listed); in the data active means activity change below about -65%; inconclusive means about -30% to -65%; inactive means above about -30%; note: % is set by controls: 0 for no effect and ±100 for the full control effect; compound concentration not given in the record
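In 5 uL wells, 23 nL compound meets equimolar GST-E1A and His-CtBP (5X stock 125 nM each) for 2 h, 37 °C. Beads (5X, 50 ug/mL) then 1 h, 37 °C, dark.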
D2 agonist: agonists of human D2 dopamine receptor (beta-arrestin) | DiscoveRx PathHunter D2 beta-arrestin, luminescence, 90 min; 100% = 57 uM dopamine signal | activation, % (no concentration beside the values) | 0.084% of 360,000 active; in the data active = activation above about 40%; inconclusive = about 15% to 40%; inactive = below about 15%; note: compound concentration not given in the record; the text of the record calls up to 30% inactive
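Agonist mode: compounds alone added to overnight-plated D2 PathHunter cells for 90 min at 37 C, with 57 uM final dopamine (EC100) defining full response. Beta-arrestin recruitment detected by chemiluminescent reagent, read after 1 h at ambient temperature.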
PINK1 modulator: PINK1 expression modulation. Potency, µM (titrated, usually from 76.6 µM), without a hit: at the highest dose activation (PINK1 increase), hits mostly activators. 0.2% of 410,000 active. PINK1 immunofluorescence, high-content cytometry, 24 h; active = well fitted activation curve with a large enough effect; inconclusive = small, poorly fitted or top-dose-only effect; inactive = flat fitted curve, though single readings scatter; cell line not stated here;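 note: potency is the fitted concentration of half-maximal effect; % of control where 0% means no effect; nearly all actives have a fitted effect of over 65% in size; a mitochondrial uncoupler was the plate control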
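PINK1 protein, normally rapidly degraded, was detected by immunofluorescence after 24 hour compound treatment of a stable cell line. Titration data (5 concentrations) came from laser-scanning cytometry, with CCCP-treated wells as controls.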
Six1-Eya2 inh: blocks human Six1 binding to Eya2 | Q15475+O00167 | activity change, % (test concentration not listed) | 0.56% of 360,000 active | AlphaScreen GST-Six1/His-Eya2 binding, biochemical; hits give low values; control for the full effect not named in the record; in the data active = activity change below about -65%; inconclusive = about -30% to -65%; inactive = above about -30%; note: % is set by controls: 0 for no effect and ±100 for the full control effect; compound concentration not given in the record
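Compounds are tested against tagged Six1 and Eya2 proteins bridged by glutathione donor and nickel acceptor beads; after a one-hour incubation at 37 °C without light, AlphaScreen emission is recorded.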
TRPML1 ag: agonists of human TRPML1 channel; 0.12% of 410,000 active; AID 624414; activation, % (no concentration beside the values); Q9GZU1; TRPML1-expressing cells, Ca2+ dye fluorescence, FDSS; host cell line not named in the record; reference of the full effect not given here; in the data active = activation above about 50%; inconclusive = about 30% to 50%; inactive = below about 30%; note: 0% is about no effect; the text of the record puts the active cut at 80%
Target sequence (Q9GZU1 whole entry, looked up): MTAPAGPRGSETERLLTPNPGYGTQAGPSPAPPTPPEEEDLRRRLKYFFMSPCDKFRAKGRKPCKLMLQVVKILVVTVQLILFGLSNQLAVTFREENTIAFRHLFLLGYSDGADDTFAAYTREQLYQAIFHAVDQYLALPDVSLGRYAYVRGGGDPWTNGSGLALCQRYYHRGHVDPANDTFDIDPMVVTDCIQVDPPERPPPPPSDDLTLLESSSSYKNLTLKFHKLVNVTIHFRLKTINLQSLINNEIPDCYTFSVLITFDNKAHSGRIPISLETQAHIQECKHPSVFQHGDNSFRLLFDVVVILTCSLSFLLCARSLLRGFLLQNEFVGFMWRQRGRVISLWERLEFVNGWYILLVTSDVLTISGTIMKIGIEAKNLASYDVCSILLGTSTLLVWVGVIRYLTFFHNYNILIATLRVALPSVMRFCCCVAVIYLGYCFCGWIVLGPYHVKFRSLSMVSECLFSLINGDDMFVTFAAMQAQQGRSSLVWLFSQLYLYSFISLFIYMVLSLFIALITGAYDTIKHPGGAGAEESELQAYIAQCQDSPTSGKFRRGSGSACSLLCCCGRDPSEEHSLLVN
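TRPML1-DL cells, Tet-induced overnight (~16 h, 37 degrees C), loaded 45-90 min at room temperature with Ca8 no-wash calcium dye plus quencher. FDSS fluorescence: 10 s baseline, compound pin-transfer, 110 s agonist read, then EC80 54-4 (4uM final) and 110 s antagonist read.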
Numbers without * were called inactive; u = inconclusive; x = no result given; & = joins results of further samples; [ ] = dose if it differs, or a comment.

SMILES	D2 PAM	CtBP-E1A inh	D2 agonist	PINK1 modulator	Six1-Eya2 inh	TRPML1 ag
Cn1ncc(C#N)c1NC(=O)c1cc(-c2ccccc2Cl)on1	-6.8	-0.3	-4.0	0.7%	-28.9	-0.7
Cc1ccc(-c2[nH]c3cc(C(N)=O)ccc3c(=O)c2O)cc1	4.4	x	0.9	-0.2%	-9.7	0.4
COc1cccc(C(=O)NCc2ccc3c(c2)cc(C)n3C)c1	-10.8	-21.5	-3.1	0.1%	-17.6	1.2
CCN(C(=O)COC(=O)C1=COCCO1)c1c(N)n(Cc2ccccc2)c(=O)[nH]c1=O	u	14.8	-2.6	-0.2%	3.1	0.3
CCOc1ccc(N(CC(=O)Nc2ccc(C)c(Cl)c2)S(C)(=O)=O)cc1	-4.0	-1.4	-3.4	3.3%	2.3	1.5
O=C(c1cc2ccccc2oc1=O)N1CCN(S(=O)(=O)c2ccccc2)CC1	20.2	9.5	-1.2	-0.1%	1.2	-0.3
NS(=O)(=O)c1cc(C(=O)OCC(=O)NNC(=O)c2ccccc2)ccc1Cl	-19.3	5.7	-2.9	-0.3%	3.2	0.1
S=c1[nH]nc(-c2cccs2)n1C1CCCCC1	-4.0	4.6	4.0	-0.9%	6.0	-0.2
O=C1CCC(CCc2nc3ccccc3[nH]2)(c2ccccc2)C(=O)N1 (stereo not drawn)	-9.9	10.1	2.0	-1.0%	3.7	-0.3
CS(=O)(=O)N1Cc2ccccc2CC1C(=O)OCC(=O)Nc1ccc2ccccc2c1 (stereo not drawn)	-8.5	2.2	-0.9	0.6%[38.3 µM]	-3.4	1.2
Cc1cc(NC(=O)CSc2nnc(C(F)(F)F)n2C)no1	-10.4	-5.9	-1.1	1.4%	0.0	1.0
CC(NC(=O)[C@H](C)N1C(=O)N2CCc3c([nH]c4ccccc34)[C@@]2(C)C1=O)c1ccccc1 (stereo partly drawn)	-11.3	-5.7	6.2	3.2%	-10.1	x
Cc1cccc(C)c1NC(=O)CSC(=O)c1sc2ccccc2c1Cl	-6.2	7.1	-2.3	-1.8%	-2.7	0.1
Cc1cccc(NC(=O)COc2ccccc2C(=O)NC(C)c2ccccc2)c1 (stereo not drawn)	-19.0	-0.2	7.0	u	-0.9	1.1
O=C1CSC(c2cccc(F)c2)N1c1ccc(O)cc1 (stereo not drawn)	-4.2	4.2	-0.7	x	6.6	0.2
O=C(Nc1sc2c(c1C(=O)O)CCC2)c1ccco1	-1.3	-9.1	1.4	-1.7%	-2.6	-0.2
COc1ccc(C(C(=O)NC2CCCC2)N(C(=O)c2snc(-c3ccc(F)cc3)c2N)c2ccc(OC)cc2)cc1 (stereo not drawn)	-0.3	-2.1	-1.6	-4.0%	-9.1	-0.7
CC(C)CCN1CCN(Cc2cnc(N3CCCC3)s2)CC1CCO (stereo not drawn)	-13.0	5.2	-0.8	0.5%	2.2	-0.7
COc1ccc(-c2[nH]c(-c3ccccc3)nc2SCC(=O)NCc2ccco2)cc1OC	-7.3	-0.3	-2.5	5.5%	-12.9	0.7
COC(=O)c1ccc(NC(=O)CCN2C(=O)C3CC=CCC3C2=O)cc1 (stereo not drawn)	-1.3	0.7	0.5	0.4%	-6.1	0.8
CC(C)(C)c1ccc(C(=O)NC(=O)COC(=O)c2ccco2)cc1	-69.0	6.6	10.7	9.6%	-2.7	1.5
Cc1ccc(N(O)C(C)(C)C)cc1	8.8	7.6	3.5	2.7%	-5.9	-0.4
C=CCN1C(=O)C(=Cc2ccc3c(c2)CCC3)SC1=S	2.8	-4.3	-0.4	3.3%	-20.3	-0.5
Cc1nn(CC(=O)Nc2ccccc2)c(=O)c2ccccc12	0.9	0.5	1.4	-0.1%	1.1	0.3
COC(=O)[C@H](Cc1c[nH]c2ccccc12)NC(=O)CCCc1c[nH]c2ccccc12	4.5	-10.4	5.0	0.9%	-9.9	1.0
COc1ccc(NS(=O)(=O)c2cccc(NC(=O)NC3CCCCC3)c2)cc1	-10.6	-1.6	-3.4	u	-4.4	0.1
COC(=O)c1ccc(Cl)c(NC(=O)CSc2nnc(-c3ccncc3)o2)c1	4.3	1.4	-2.9	0.9%	4.5	-0.6
O=C(COC(=O)/C=C/c1ccc(F)cc1)NC(=O)NCc1ccccc1	4.5	13.5	0.3	0.0%	0.6	-0.4
Cc1cc(N/N=C2\CC(C)CC(C)(C)C2)nc2ccccc12 (stereo not drawn)	-17.2	-5.3	-15.1	29.5%	-4.7	4.1
CCCn1c(SCC(=O)Nc2nonc2C)nnc1-c1ccoc1C	-9.8	-1.6	-3.6	0.9%	-1.5	0.7
CC1=N/C(=C/c2cc(Br)cc(Br)c2O)C(=O)O1	-11.0	x	-4.2	2.5%	4.6	-0.4
CCOCCc1nnc(NC(=O)CN2C(=O)c3ccccc3C2=O)s1	3.9	-2.8	-1.0	-0.4%[38.3 µM]	-0.9	0.1
Cc1ccc(S(=O)(=O)N/N=C\c2ccccc2OCc2ccccc2)cc1	-10.0	-6.5	-2.1	12.6%[38.3 µM]	-6.4	2.2
COc1ccc(C(=O)CC(C(=O)O)c2ccc3c(c2)OCO3)cc1OC (stereo not drawn)	-4.4	5.0	-5.7	-0.2%	0.2	-0.7
Cc1cc2n(n1)C(c1cccs1)Nc1ccccc1-2 (stereo not drawn)	-4.5	33.2	-3.0	1.4%	45.4	-1.0
COc1ccc([C@H]2CC(=O)C=C(c3cccc(CO)c3)C2)cc1OC	-3.5	3.7	0.5	2.0%	-1.2	0.6
Cc1csc(SCC(=O)NC(C)c2ccccc2)n1 (stereo not drawn)	-11.5	x	1.9	-0.4%	3.2	0.0
COc1ccc(/C=C2/SC(=O)NC2=O)cc1	-2.3	-9.5	-3.1	-0.8%	0.2	-0.7
CC(OC(=O)c1cc(S(=O)(=O)N(C)C)ccc1N1CCCC1)C(=O)NCc1ccccc1 (stereo not drawn)	5.2	0.0	2.3	1.0%	-4.1	-0.9
Cc1ccc(Cn2ncc3c(N4CCN(CCc5ccccc5)CC4)ncnc32)cc1	-13.9	-18.7	-4.6	1.3%	-11.3	1.9
Cc1ccc(S(=O)(=O)Nc2ccc3c(c2)CC(=O)N([C@H](C)CO)C[C@@H](C)[C@H](CN(C)S(=O)(=O)c2ccccc2)O3)cc1	-9.5	-5.3	-1.3	1.0%	5.7	0.6
CCOc1ccc(CCNc2nc3ccccc3n3cnnc23)cc1OCC	8.8	9.8	3.3	6.9%	1.1	1.3
CCC1(CC)NC(=O)N(CC(=O)Nc2ccc(OCc3ccccc3)cc2)C1=O	-23.4	2.7	0.7	1.5%	2.8	-0.3
N#CCC(=O)N/N=C/c1ccccc1Cl	-7.3	8.3	-1.4	0.8%	-3.4	-0.2
CCCc1cc(C(=O)Nc2cccc([N+](=O)[O-])c2)cs1	-21.5	-19.7	1.1	u	-2.2	-0.2
CN(C)c1ccc(/C=C2\CCCc3c2nc2ccccc2c3C(=O)O)cc1	5.9	10.8	-0.8	-0.8%	-0.7	8.0
Cc1ccccc1NC(=O)/C(C#N)=C/c1ccc(-c2ccc(Cl)c(C(=O)O)c2)o1	-3.9	-13.4	1.5	1.7%	-15.1	1.3
CCCN1C2CCCC1CC(NC(=O)c1cccc(Cl)c1)C2 (stereo not drawn)	-15.0	-3.1	-3.6	-0.7%	-8.1	0.4
O=C(CSc1nc2ccccc2s1)N1c2ccccc2Sc2ccc(Cl)cc21	-4.3	-2.6	-1.0	u	-6.4	2.6
COC(=O)c1ccsc1NC(=O)C1=COCCO1	-7.5	-3.0	-4.8	-0.6%	-8.9	-0.3
CC(C)C[C@@H]1O[C@H](CCc2ccccc2)CC2=C1C(=O)OC(C)(C)O2	x	19.3&16.4	x	u	17.2&21.7	1.8&-0.3
O=C(CCCNC(=O)/C(=C/c1ccccc1F)NC(=O)c1ccccc1)OCc1ccccc1	-12.8	-2.6	1.2	5.0%	-4.4	3.4
C=CCn1c(CCc2ccccc2)nnc1SCC(N)=O	-1.7	x	1.6	-1.2%	9.7	2.2
CCCn1cnc2cc(NCc3cccc(OC)c3)ccc21	-2.0	-6.1	-2.6	3.9%[38.3 µM]	-12.5	1.5
CCOC(=O)N1CCN(CC(O)COc2ccccc2[N+](=O)[O-])CC1 (stereo not drawn)	-11.2	5.2	4.0	-2.2%	4.4	3.7
CN=C1S/C(=C\c2c(OC)cc(OC)cc2OC)C(=O)N1C	9.2	-7.6	-2.4	9.2%	-0.8	-0.6
CCOC(=O)c1sc(-c2ccc(OC)cc2)cc1N	-8.3	-0.4	-1.6	1.8%	3.1	2.9
Cc1ccc(CN2CCN(C(=O)C3CCCO3)CC2)cc1 (stereo not drawn)	-18.3	5.4	4.0	u	2.0	0.5
CN(C(=O)c1cccnc1)c1nc(-c2ccccc2)cs1	-6.2	-4.1	-3.7	1.3%[38.3 µM]	-0.3	0.8
CC(C(=O)NCCC1=CCCCC1)c1ccc([N+](=O)[O-])cc1 (stereo not drawn)	-6.8	0.4	-4.5	2.6%	-2.6	-0.8

3 entries out of the list above, arranged by the value under CtBP-E1A inh, low to high.
Molecule	CtBP-E1A inh
CCCN1C2CCCC1CC(NC(=O)c1cccc(Cl)c1)C2 (stereo not drawn)	-3.1
CC(C(=O)NCCC1=CCCCC1)c1ccc([N+](=O)[O-])cc1 (stereo not drawn)	0.4
Cc1ccc(CN2CCN(C(=O)C3CCCO3)CC2)cc1 (stereo not drawn)	5.4

(next part)
SMILES	D2 PAM	CtBP-E1A inh	D2 agonist	PINK1 modulator	Six1-Eya2 inh	TRPML1 ag
CN1CCc2nc(SCC(=O)Nc3ccc(Cl)cc3)c(C#N)cc2C1	-41.0	-11.9	-0.7	-0.8%	4.8	1.2
C=CCOc1ccc(/C=N/NC(=O)c2c(C)nc3ccc(Cl)cn23)cc1	-3.1	-2.3	-1.3	4.8%	2.3	0.1
CN(C)S(=O)(=O)c1cccc(NC(=S)Nc2cccc3cnccc23)c1	2.6	u	10.5	1.9%	3.3	0.0
C/C=C(\C)C(=O)Nc1cccc(C2=NOC3(C2)C[C@@H](C(N)=O)N(C(=O)/C(C)=C/C)C3)c1 (stereo partly drawn)	-5.1	-1.9	-3.0	0.5%	1.3	-0.8
Cc1ccnc(N2CCC(C(=O)NCc3ccc4c(c3)OCO4)CC2)n1	-3.8	8.2	-2.3	0.0%[38.3 µM]	1.9	-0.6
CCC(C(=O)NC1CCCCCC1)n1nc(C)n2c(cc3occc32)c1=O (stereo not drawn)	-17.3	0.4	-6.9	4.0%	-0.7	0.0
O=C(CSc1nncs1)NC1CCCc2ccccc21 (stereo not drawn)	-5.5	0.3	0.5	1.1%	4.6	-0.7
CCn1cc(C(=O)NCC(OC)OC)c(=O)c2cc(S(=O)(=O)N3CCOCC3)ccc21	-10.5	x	-4.5	0.5%	-0.8	0.3
CC1(C)N([O-])C(c2ccccc2)=C[N+](=O)C1(C)C	-4.3	-6.1	0.9	-0.9%	-1.8	-0.2
CC(C)CC(=O)Nc1ccc(N2CCOCC2)cc1	-19.2	-2.3	-3.3	-2.4%	-0.1	-0.3
O=C(O)CCCC(=O)NCc1ccccn1	7.8	3.0	-1.4	-2.4%	-1.2	-0.3
Cc1cccc(C2CC(c3ccc(F)cc3)Nc3nc(N)nn32)c1 (stereo not drawn)	-2.1	2.4	1.5	0.3%	-0.1	4.0
